rRNA inh HTS – inhibitors of bacterial rRNA selective over humanized ribosomes; GFP signal change (wild-type ribosome), % (no concentration beside the values); AID 720706; 1.6% of 350,000 active; E. coli WT GFP vs humanized-ribosome RFP mutants, fluorescence, 24 h; active compounds read low; DMSO median 0, no signal -100;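 active means significant combined selectivity score with lowered wild-type GFP, culture density cut under 30%, mutant RFP and density less affected; inactive means any of these conditions unmet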; further: one replicate is shown; some compounds called inactive have numbers as strong as hits
MLL AF4-AF9 inh – inhibitors of human MLL-AF4/AF9 interaction; AlphaScreen, biotin-AF4 peptide binding to FLAG-AF9; P42568; AID 651704; inhibition, % at 10 µM; 0.47% of 350,000 active;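 active means every replicate reaching a set inhibition limit, whatever the replicate mean, cut at about 25% in these data; inconclusive means mean inhibition reaches that limit but some replicates miss it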;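 further: 0% = plate neutral control median and 100% = total signal loss; the record names both 10 and 1 µM as test concentration; the first replicate is given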
Target sequence (P42568 whole entry, looked up): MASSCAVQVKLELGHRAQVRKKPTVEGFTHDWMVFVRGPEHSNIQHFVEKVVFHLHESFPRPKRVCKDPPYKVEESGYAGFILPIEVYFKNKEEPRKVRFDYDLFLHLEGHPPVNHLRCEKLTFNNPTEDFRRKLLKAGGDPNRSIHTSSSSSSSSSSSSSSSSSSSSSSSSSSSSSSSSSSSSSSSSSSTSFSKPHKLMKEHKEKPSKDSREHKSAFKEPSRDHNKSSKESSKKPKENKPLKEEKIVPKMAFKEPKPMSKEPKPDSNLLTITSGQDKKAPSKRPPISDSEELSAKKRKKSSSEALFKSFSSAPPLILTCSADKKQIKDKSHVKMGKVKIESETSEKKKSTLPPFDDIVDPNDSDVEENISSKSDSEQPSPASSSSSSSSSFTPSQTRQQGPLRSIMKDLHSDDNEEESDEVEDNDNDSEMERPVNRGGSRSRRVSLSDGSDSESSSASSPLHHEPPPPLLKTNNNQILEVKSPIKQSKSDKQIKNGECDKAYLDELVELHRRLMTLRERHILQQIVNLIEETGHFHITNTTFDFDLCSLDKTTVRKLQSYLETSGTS
rRNA inh HTS OD600 – further read-out of rRNA inh HTS, marked with its call; OD600 change, %; measured here: OD600 growth;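 optical density of the mix in the first replicate; 0 = DMSO median and -100 = no signal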
rRNA inh HTS RFP – second read-out of rRNA inh HTS, no call of its own (marks repeat the call); RFP signal change, %; measured here: RFP humanized mutant strains;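 first replicate; 0 = DMSO median and -100 = no signal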
The depositor's hits bear a star; ? = inconclusive.

SMILES	rRNA inh HTS	rRNA inh HTS OD600	rRNA inh HTS RFP	MLL AF4-AF9 inh
COc1cccc(NC(=O)N[C@@H]2CC[C@H](CC(=O)Nc3ccccc3)O[C@H]2CO)c1	-3	0	1.3	1.0
Cc1ccc(S(=O)(=O)N(C)C[C@H]2OCCCC[C@@H](C)Oc3ccc(NS(=O)(=O)c4ccccc4)cc3C(=O)N([C@H](C)CO)C[C@@H]2C)cc1	0	-1	-1.3	-0.2
O=C(C[C@H]1CC[C@H]2[C@@H](COC[C@H](O)CN2C(=O)Nc2ccccc2)O1)NCCCN1CCOCC1	3	3	2.3	-2.3
OC(c1ccc(F)cc1)c1nc(-c2cccc(F)c2)cs1 (configuration not stated)	-46	-67	11	-0.1
C[C@H](CO)N1C[C@H](C)[C@@H](CN(C)C(=O)c2cnccn2)Oc2ncc(-c3cccc(C#N)c3)cc2C1=O	3	13	-3.2	-1.6
C[C@H]1CN([C@@H](C)CO)S(=O)(=O)c2ccc(C3=CCCCC3)cc2O[C@H]1CN(C)C(=O)C1CCC1	-32	-59	32	1.6
Cc1cccc(S(=O)(=O)N2C[C@H]3[C@@H](c4ccccc42)[C@@H](CO)N3C(=O)c2ccccc2)c1	-9	-7	3.1	0.1
COCc1cn(CC[C@H]2CC[C@H](NC(=O)CCN3CCCCC3)[C@@H](CO)O2)nn1	0	-1	-1.7	-12
COc1ccc(NC(=O)Nc2cccc3c2O[C@@H](CN(C)S(C)(=O)=O)[C@@H](C)CN([C@H](C)CO)C3=O)cc1	-1	-7	-0.8	-0.9
CN1C(=O)c2cc(NC(=O)C3CCCC3)ccc2OC[C@@H]2O[C@@H](CC(=O)NCC(F)(F)F)CC[C@H]21	4	1	-4.8	-1.2
CNC[C@@H]1Oc2ncc(-c3cncnc3)cc2C(=O)N([C@@H](C)CO)C[C@H]1C	3	8	-1.3	-6.2
O=S(=O)(NCC[C@@H]1CC[C@H](NS(=O)(=O)c2cccc(Cl)c2)[C@H](CO)O1)c1cccc(F)c1	-6	-11	0.0	0.9
C[C@H](CO)N1C[C@H](C)[C@H](CN(C)Cc2ccc(Oc3ccccc3)cc2)Oc2c(NC(=O)c3ccc(-c4nccs4)cc3)cccc2C1=O	5	7	11	-2.4
O=C(Cc1ccccn1)N1CC(=O)N2[C@H](C1)[C@@H](c1ccc(-c3ccc(F)cc3)cc1)[C@@H]2CO	-3	-4	-1.4	-3.6
Cc1nc(N2[C@@H](C#N)[C@H](c3ccccc3)[C@@H]2CO)sc1C	3	20	0.3	-3.4
CNC[C@H]1Oc2cc(C#Cc3ccc(F)cc3)ccc2S(=O)(=O)N([C@@H](C)CO)C[C@H]1C	2	-4	4.8	6.3
C[C@H](CO)N1C[C@H](C)[C@@H](CN(C)S(C)(=O)=O)OCCCC[C@H](C)Oc2ccc(NC(=O)NC3CCCCC3)cc2C1=O	0	-3	1.4	-1.6
CCCNC(=O)N(C)C[C@H]1Oc2ncc(-c3ccccc3F)cc2C(=O)N([C@H](C)CO)C[C@@H]1C	4	4	-4.3	-1.2
COc1ccc2c3c([nH]c2c1)[C@@H](CO)N(Cc1nccs1)CC31CCN(C(=O)C2CCCCC2)CC1	-4	1	1.0	6.5
O=C(Nc1ccc(Cl)cc1)N1C[C@H]2[C@@H](c3ccccc31)[C@@H](CO)N2C(=O)c1ccccn1	-23*	-18*	-0.3*	0.0
O=C(NCCc1ccccc1F)c1[nH]c(C(F)(F)F)nc1-c1ccccc1	0	-35	-14	-1.1
Cc1noc(C)c1NC(=O)N(C)C[C@@H]1Oc2c(cccc2N(C)C)C(=O)N([C@@H](C)CO)C[C@@H]1C	3	4	-1.4	-1.0
O=C(C[C@H]1CC[C@H]2[C@@H](COC[C@H](O)CN2Cc2cccc(C(F)(F)F)c2)O1)NCc1ccncc1	-1	5	-0.8	-0.9
Cn1cnc(S(=O)(=O)N2CCCCN3[C@H](C2)[C@H](c2ccc(-c4ccc(F)cc4)cc2)[C@@H]3CO)c1	5	6	0.3	-1.2
O=S1(=O)CCSC[C@@H](CNCc2ccco2)N1	11	6	5.4	-1.7

Next part.
SMILES	rRNA inh HTS	rRNA inh HTS OD600	rRNA inh HTS RFP	MLL AF4-AF9 inh
Nc1[nH]c(C(=O)c2ccccc2)c(-c2ccc(Cl)cc2)c1C(=O)c1c[nH]c2cc(F)ccc12	-25	-47	6.8	-4.8
COc1cccc2c1cc1c(=O)n(CC(=O)N3CCCC3)nc(C)n12	9	15	-0.7	-4.3
C[C@H]1CN([C@@H](C)CO)C(=O)c2cc(NC(=O)Nc3ccc4c(c3)OCO4)ccc2O[C@H]1CN(C)C	-4	-5	-1.1	0.3
Cc1ccccc1-c1ccc2c(c1)O[C@H](CN(C)C(=O)Nc1ccccc1)[C@H](C)CN([C@H](C)CO)S2(=O)=O	-3	-13	0.9	2.9
COCC(=O)N1[C@@H]2CN(C(=O)C3CC3)c3ccccc3[C@@H]2[C@@H]1CO	4	16	0.6	-0.6
NC(CO)c1csc(NC(=O)Nc2cccc(Cl)c2)n1 (configuration not stated)	11	10	1.3	9.6
COc1ccc(C(C)(O)c2nc(-c3ccoc3)cs2)cc1 (configuration not stated)	14	21	6.3	-1.2
C[C@@H]1CN([C@@H](C)CO)C(=O)Cc2cc(NC(=O)Nc3ccc(F)cc3)ccc2O[C@H]1CN(C)Cc1ccc(C(=O)Nc2ccccc2N)cc1	-1	0	0.1	-2.3
Cc1ccc(S(=O)(=O)N2C[C@H]3C(=O)C[C@@H](c4ccccc4)N(S(=O)(=O)c4ccc(C)cc4)[C@H]3C[C@H]2c2ccccc2F)cc1	15	14	0.8	9.6
COCC#Cc1cnc2c(c1)C(=O)N([C@@H](C)CO)C[C@H](C)[C@@H](CN(C)C(=O)CN1CCOCC1)O2	6	9	2.2	-2.0
COc1ccc(NC(=O)N(C)C[C@H]2Oc3ccc(NS(=O)(=O)c4ccccc4)cc3CC(=O)N([C@H](C)CO)C[C@H]2C)cc1	1	-1	-1.7	1.2
C[C@@H]1CN([C@H](C)CO)C(=O)Cc2cc(NC(=O)Cn3cnnn3)ccc2O[C@@H]1CN(C)S(=O)(=O)c1cn(C)cn1	2	16	-1.8	-2.9
COc1ccc(CN(C)C[C@@H]2OCCCC[C@H](C)Oc3ccc(NS(=O)(=O)c4ccc(Cl)cc4)cc3C(=O)N([C@H](C)CO)C[C@@H]2C)cc1	-12	-48	27	8.1
O=C(NCc1ccccc1Cl)c1csc([C@@H]2O[C@H](CO)[C@@H](O)[C@H]2O)n1	11	16	-2.2	-20
COc1ccc2c3c([nH]c2c1)[C@@H](CO)N(C)CC31CN(S(=O)(=O)c2cccc(F)c2)C1	-3	1	-1.6	-0.8
CCNC(=O)C[C@H]1CC[C@H]2[C@H](COc3ccc(NC(=O)c4ccc(C(F)(F)F)cc4)cc3C(=O)N2C)O1	1	4	-1.3	-1.5
COc1ccc(NC(=O)N[C@@H]2C=C[C@@H](CC(=O)NC3CCC3)O[C@H]2CO)cc1	2	-1	-1.3	-0.6
C[C@@H]1CN([C@H](C)CO)C(=O)c2cc(NS(C)(=O)=O)ccc2O[C@@H](C)CCCCO[C@@H]1CN(C)S(=O)(=O)c1cccs1	1	-3	4.1	-2.0
C[C@@H]1CN([C@@H](C)CO)C(=O)c2cccc(NC(=O)c3ccncc3)c2O[C@@H]1CN(C)C(=O)Nc1ccc2c(c1)OCO2	0	8	-0.3	-1.3
COc1ccc(CNC(=O)C[C@H]2C[C@@H]3c4cc(NC(=O)NC5CCCC5)ccc4O[C@@H]3[C@H](CO)O2)cc1	2	9	-1.1	0.1
CCC(=O)N1CCCCN2[C@H](C1)[C@H](c1ccc(C#Cc3ccccc3)cc1)[C@@H]2CO	-54	-77	-3.8	-4.0
Cc1noc(C)c1NC(=O)N(C)C[C@H]1OCCCC[C@@H](C)Oc2ccc(NC(=O)C3CCCCC3)cc2C(=O)N([C@H](C)CO)C[C@@H]1C	3	8	1.8	-2.5
Cc1ccc(S(=O)(=O)N(C)C[C@H]2Oc3c(NC(=O)NC(C)C)cccc3C(=O)N([C@@H](C)CO)C[C@H]2C)cc1	-2	2	-0.2	-0.5
O=C(/C=C/[C@H]1O[C@@H](n2cnc3c(NC(=O)c4ccccc4)ncnc32)[C@H](O)[C@@H]1O)NCc1cccs1	0	5	-2.8	0.8
C[C@@H]1CN([C@H](C)CO)S(=O)(=O)c2ccc(C#CCC3CCCC3)cc2O[C@H]1CN(C)C(=O)c1ccccn1	-6	-36	34	6.7

9 entries from above, arranged by length of the SMILES, lowest first.
SMILES	rRNA inh HTS	rRNA inh HTS OD600	rRNA inh HTS RFP	MLL AF4-AF9 inh
COc1cccc2c1cc1c(=O)n(CC(=O)N3CCCC3)nc(C)n12	9	15	-0.7	-4.3
CCC(=O)N1CCCCN2[C@H](C1)[C@H](c1ccc(C#Cc3ccccc3)cc1)[C@@H]2CO	-54	-77	-3.8	-4.0
CCNC(=O)C[C@H]1CC[C@H]2[C@H](COc3ccc(NC(=O)c4ccc(C(F)(F)F)cc4)cc3C(=O)N2C)O1	1	4	-1.3	-1.5
C[C@@H]1CN([C@H](C)CO)S(=O)(=O)c2ccc(C#CCC3CCCC3)cc2O[C@H]1CN(C)C(=O)c1ccccn1	-6	-36	34	6.7
Cc1ccccc1-c1ccc2c(c1)O[C@H](CN(C)C(=O)Nc1ccccc1)[C@H](C)CN([C@H](C)CO)S2(=O)=O	-3	-13	0.9	2.9
Cc1ccc(S(=O)(=O)N(C)C[C@H]2Oc3c(NC(=O)NC(C)C)cccc3C(=O)N([C@@H](C)CO)C[C@H]2C)cc1	-2	2	-0.2	-0.5
C[C@@H]1CN([C@H](C)CO)C(=O)Cc2cc(NC(=O)Cn3cnnn3)ccc2O[C@@H]1CN(C)S(=O)(=O)c1cn(C)cn1	2	16	-1.8	-2.9
COc1ccc(NC(=O)N(C)C[C@H]2Oc3ccc(NS(=O)(=O)c4ccccc4)cc3CC(=O)N([C@H](C)CO)C[C@H]2C)cc1	1	-1	-1.7	1.2
C[C@@H]1CN([C@@H](C)CO)C(=O)Cc2cc(NC(=O)Nc3ccc(F)cc3)ccc2O[C@H]1CN(C)Cc1ccc(C(=O)Nc2ccccc2N)cc1	-1	0	0.1	-2.3

Remaining list, next part
SMILES	rRNA inh HTS	rRNA inh HTS OD600	rRNA inh HTS RFP	MLL AF4-AF9 inh
O=C(N[C@@H]1CC[C@H](CCn2cc(Cc3ccccc3)nn2)O[C@@H]1CO)c1ccccn1	-1	7	2.2	-2.7
Cc1noc(C)c1NC(=O)Nc1ccc2c(c1)C(=O)N([C@@H](C)CO)C[C@H](C)[C@H](CN(C)C(=O)NC(C)C)OCCCC[C@H](C)O2	6	8	-0.3	-1.0
C[C@@H]1CN([C@@H](C)CO)C(=O)Cc2cc(NC(=O)Nc3ccccc3)ccc2O[C@@H]1CN(C)C(=O)NC1CCCCC1	0	4	0.2	0.3
CC1(C(=O)Nc2ccc3c(c2)OCO3)Cc2c(-c3ccc4c(c3)OCO4)ccnc2O1 (configuration not stated)	-1	-9	1.7	0.6
CCC(=O)N1CCCCN2[C@H](CO)[C@H](c3ccc(/C=C/c4ccccc4)cc3)[C@H]2C1	-3	-34	4.7	10
CC(C)=CCC[C@H](C)C[C@@H]1CC2=C(C(=O)OC(C)(C)O2)[C@@H](c2ccc(F)cc2)O1	9	6	-3.2	-0.7
C[C@@H]1CN([C@H](C)CO)C(=O)c2cc(NS(C)(=O)=O)ccc2O[C@@H](C)CCCCO[C@@H]1CN(C)S(=O)(=O)c1ccc(F)cc1	-5	-1	0.6	1.8
C[C@H](CO)N1C[C@H](C)[C@@H](CN(C)S(=O)(=O)c2ccc(F)cc2)OCCCC[C@H](C)Oc2ccc(NC(=O)NC3CCCCC3)cc2C1=O	-5	-5	-3.5	-4.3
CCCCC[C@H](C)N1C[C@H](COCc2ccccc2)Oc2cc(N3CC[C@H](O)C3)ccc2S1(=O)=O	-6	-1	5.0	-3.7
C[C@H]1COc2cccc(N3CCC[C@@H]3CO)c2S(=O)(=O)N1	6	11	0.2	-4.1
C=CCCC1CN(Cc2ccc(OC)cc2)S(=O)(=O)c2c(cccc2N(C)S(=O)(=O)c2ccc(C)cc2)O1 (configuration not stated)	25	16	3.4	-0.7
O=C(NCCNCc1cccc(Cl)c1)c1ccco1	-9	-23	3.8	?
CO[C@H]1CN(C)C(=O)c2ccc(NC(=O)C3CC3)cc2OC[C@@H](C)N(C(=O)c2ccccc2F)C[C@H]1C	0	0	0.1	-3.3
CCS(=O)(=O)Nc1ccc2c(c1)C(=O)N(C)[C@H]1CC[C@H](CC(=O)N3CCOCC3)O[C@@H]1CO2	2	8	0.3	-0.3
O=C(C[C@H]1CC[C@H]2[C@@H](COC[C@@H](O)CN2Cc2cc(F)ccc2F)O1)NCc1ccccc1	-12	-11	-1.6	-2.3
C[C@H]1CN([C@@H](C)CO)C(=O)c2cccc(NC(=O)CCCCCC(=O)Nc3ccccc3N)c2O[C@H]1CN(C)C	3	10	-1.0	-31
O=C(C[C@H]1CC[C@H]2[C@@H](COC[C@@H](O)CN2S(=O)(=O)c2ccccc2)O1)N[C@@H]1CCN(Cc2ccccc2)C1	0	-1	6.3	-0.3
O=C(c1ccc2c(c1)OCO2)N1CCCCN2[C@H](CO)[C@H](c3ccc(-c4ccccc4)cc3)[C@@H]2C1	-24	-59	14	-6.1

Bioassay records from PubChem BioAssay.

Only part of the results is shown; count on the stated rates, not on these rows.
